Screening data: PubChem BioAssay, National Center for Advancing Translational Sciences (NCATS)
PK Bst: Pyruvate Kinase. partly purified Bacillus stearothermophilus pyruvate kinase, luminescence ATP production; ribose 5-phosphate activator present at AC10. Potency, µM. 51,000 tested, 1.2% active; in the data active means potency below about 11 µM; inconclusive means mostly about 12 µM to 25 µM; inactive means weaker than that;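 the screen sought inhibitors and activators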;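 note: potency is the fitted concentration of half-maximal effect; scaled between full activation by ribose 5 phosphate and full inhibition by luteolin; about four in five hits inhibit and the cells do not say which; series up to 57 µM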
YjeE inh: qHTS Assay for Inhibitors of YjeE; purified YjeE, fluorescence polarisation of a bound ADP probe; 71,000 tested, 0.05% active; Potency, µM; AID 605, 2007; active = well fitted falling curve; inconclusive = weaker or top-dose-only fall, or a rising curve; inactive = flat or poorly fitted curve;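 note: top concentration of the series not given in the record; excess ADP was the control for the full effect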
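Purified YjeE (10 uM) with BODIPY Texas Red-labeled ADP probe (2 uM); compounds pin-transferred, 15 min at room temperature. Binding inhibition read as decreased fluorescence polarization; ADP titration as control.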
The depositor's hits bear a star; i = inactive; ? = inconclusive; / = no result given. These rows are one share of the data; the hit share may differ from the screen's.

Start of the listing, in advance, two compounds:
| compound | YjeE inh | PK Bst |
| --- | --- | --- |
| O=c1c2[nH]c3ccccc3c2ncn1Cc1ccccn1 | i | >57 |
| COc1ccc(CCNC(=O)c2ccc(N3CCCC3=O)cc2)cc1OC | i | >57 |

This part in full, from the first entry:
| compound | YjeE inh | PK Bst |
| --- | --- | --- |
| O=c1c2[nH]c3ccccc3c2ncn1Cc1ccccn1 | i | >57 |
| COc1ccc(CCNC(=O)c2ccc(N3CCCC3=O)cc2)cc1OC | i | >57 |
| CCCCn1c(=O)[nH]c(=O)c2c1nc(CN1C(=O)c3ccccc3S1(=O)=O)n2CCC | i | >57 |
| CC(C)CCn1c(SCC(=O)c2ccccc2)nc2c1c(=O)[nH]c(=O)n2C | i | >57 |
| COc1ccc(-c2nc(SC)n(S(=O)(=O)c3ccccc3)n2)cc1 | i | >57 |
| CCn1cc(C(=O)Nc2nncs2)c(=O)c2cc(F)c(N3CCN(C(=O)c4ccco4)CC3)cc21 | i | >57 |
| O=C1CC(c2cccs2)c2cc3c(cc2N1)OCCO3 (stereo not drawn) | i | >57 |
| CCN1CC=C2C(C#N)=C(N)C(C#N)(C#N)[C@H](c3cccc(OC)c3OC)[C@H]2C1 | / | >11.4 |
| CN(C)c1oc(COc2ccc(F)cc2)nc1C#N | i | >57 |
| CCOCCCNC(=O)c1ccc2c(c1)N(Cc1ccccc1)C(=O)CS2=O (stereo not drawn) | i | / |
| Cn1c([N+](=O)[O-])cnc1CN1CCN(CCO)CC1 | i | / |
| COc1ccc(CN2CCN(c3ncccn3)CC2)c(OC)c1 | i | / |

Compound profiles, as listed above:
`CCOCCCNC(=O)c1ccc2c(c1)N(Cc1ccccc1)C(=O)CS2=O` (stereo not drawn) is listed as YjeE inh = i; PK Bst = /
`CCCCn1c(=O)[nH]c(=O)c2c1nc(CN1C(=O)c3ccccc3S1(=O)=O)n2CCC` is listed as YjeE inh = i; PK Bst = >57
`COc1ccc(-c2nc(SC)n(S(=O)(=O)c3ccccc3)n2)cc1` is listed as YjeE inh = i; PK Bst = >57

Further records
| compound | YjeE inh | PK Bst |
| --- | --- | --- |
| Cc1ccc(-c2cn3c(=S)[nH]nc3s2)cc1 | i | >57 |
| c1ccc(OCc2nnc3sc(C4COc5ccccc5O4)nn23)cc1 (stereo not drawn) | i | / |
| O=C(O)CN1C(=O)CNC1=O | i | >57 |
| COC(=O)[C@@]1(Cc2ccc(OC)cc2)[C@H]2c3cc(C(=O)N(C)C)n(C[C@H](O)CO)c3C[C@H]2CN1C(=O)c1ccccc1 | i | / |
| COCC(=O)N1CCC2(CCCN(Cc3ccc(C#N)cc3)C2)CC1 | i | / |
| O=c1c(-c2ccccc2)nc2cnc(N3CCOCC3)nc2n1Cc1cccs1 | i | / |
| O/N=C1/CCSc2ccccc21 | i | i |
| COC(=O)N1CCC2(CCN(Cc3ccccc3)CC2)CC1 | i | / |
| NC(N)=Nc1nc2ccc([N+](=O)[O-])cc2[nH]1 | i | / |
| O=C(CSc1nnc(-c2ccco2)o1)NC1CCCCCC1 | i | >57 |
| CN(C)C(=O)c1ccc(-c2cncnc2NCc2ccccc2)cc1 | i | / |
| O=C(CSc1oc(-c2ccco2)nc1S(=O)(=O)c1ccc(F)cc1)NCC1CCCO1 (stereo not drawn) | i | >57 |
| O=C(CCN1CCN(c2ccccc2F)CC1)Nc1ccc2c(c1)OCO2 | i | >57 |
| CC(c1ccccc1)N1C(=O)CC(Sc2ncccc2C(=O)O)C1=O (stereo not drawn) | i | >57 |
| Cn1c(=O)oc2cc(S(=O)(=O)N3CCCC(C(=O)NCCN4CCOCC4)C3)ccc21 (stereo not drawn) | i | / |
| c1cncc(-c2nc(NCc3cccs3)c3ccccc3n2)c1 | i | / |
| COCCn1c(=S)[nH]c2cc(C(=O)N3CCN(Cc4ccc5c(c4)OCO5)CC3)ccc2c1=O | i | >57 |
| CC(=O)c1cc(C)ccc1OC(=O)c1cccnc1 | i | >57 |
| C=CCn1c(=O)[nH]c2cc(C(=O)N3CCN(c4ccc(C(C)=O)cc4)CC3)ccc2c1=O | i | >57 |
| Cc1ccccc1-c1nc(N2CCOCC2)c2ccccc2n1 | ? | / |
| CNC(=O)C1(CC(C)C)C=CCN1C(=O)c1ccccc1 (stereo not drawn) | i | / |
| Cc1ccc(C(=O)CC2(O)C(=O)N(CCc3ccccc3)c3ccc(Br)cc32)o1 (stereo not drawn) | i | >57 |
| CCN1CCN(CCCOc2ccc(-c3ccccc3)cc2)CC1 | i | >57 |
| Cc1ccc2cc3c(N)c(C(=O)N4CCOCC4)sc3nc2c1 | i | 11.1* |
| O=C(Nc1ccccc1)N1CCCC2(CCN(C(=O)c3cc(C(F)(F)F)cc(C(F)(F)F)c3)CC2)C1 | i | / |
| O=C(O)CSc1cccc2cccc(C(=O)O)c12 | i | / |
| CC1(C)Cc2c(C#N)c(N3CCN(C(=O)c4ccccc4)CC3)nc(-c3ccco3)c2CS1 | / | >25.6 |
| Cc1nc(SCC(=O)Nc2cc(C)on2)c2c(C)c(C)sc2n1 | i | >57 |
| O=C(Cn1nnc(-c2ccccc2F)n1)Nc1ccc(S(=O)(=O)NC2CCCC2)cc1 | i | >57 |
| COc1ccc(-c2nc(CNS(=O)(=O)c3cc(OC)ccc3OC)cs2)cc1 | i | / |
| COc1ccc(CCC(=O)N2CCc3ccccc32)cc1 | i | / |
| Cc1ccccc1N1C(=O)c2sc3nc4c(c(=O)n3c2C1=O)CCC4 | i | / |
| O=C(CCC1COc2ccccc2O1)NCc1ccco1 (stereo not drawn) | i | >57 |
| O=C(O)c1c2c(c(O)c3c1CN(C1CCCCC1)CO3)OCN(C1CCCCC1)C2 | i | / |
| COc1ccc(S(=O)(=O)N2CCCC(C(=O)NCCC3=CCCCC3)C2)cc1 (stereo not drawn) | i | >57 |
| CCCOC(=O)c1ccc(OCC(O)CN2C(=O)NC(C)(C)C2=O)cc1 (stereo not drawn) | i | / |
| C=C1CC[C@H](O)C/C1=C/C=C1\CCC[C@]2(C)[C@@H]([C@H](C)CCCC(C)C)CC[C@@H]12 | i | / |
| COC(=O)CSc1ncnc2c1sc1nc(-c3ccco3)c3c(c12)CC(C)(C)OC3 | / | >25.6 |
| O=C(NCC1CCCO1)C(C(=O)c1ccc(F)cc1)n1ccccc1=O (stereo not drawn) | i | >57 |
| O=C(CCn1nnc2ccccc21)Nc1nnc(Cc2ccc(F)cc2)s1 | i | >57 |
| COCCCNC(=O)c1ccc2c(=O)n(C3CCCC3)c(=S)[nH]c2c1 | i | >57 |
| Cc1noc(C)c1COc1cccc(C(=O)OCC(=O)N2CC(=O)Nc3ccccc32)c1 | i | >57 |
| CCCCCn1c2nc3ccccc3nc2c2c(=O)n(CC3CCCO3)c(C)nc21 (stereo not drawn) | i | >57 |
| NS(=O)(=O)c1ccc(CCNc2nc(CN3CCOCC3)nc3sc4c(c23)CCC4)cc1 | i | >57 |
| CCCN(C(=O)CSc1nnc(-c2ccoc2C)n1N)C1CCS(=O)(=O)C1 (stereo not drawn) | i | >57 |
| COCCNC(=O)c1cc2c(=O)n(C)c3ccccc3c2n1C | i | / |
| Nc1nc(Nc2ccc(Cl)cc2Cl)nc(C(F)(F)F)n1 | i | >57 |
| Cc1onc(-c2ccccc2)c1C(=O)N1CCCSC1=Nc1ccccc1 | i | >57 |
| c1csc(Cn2nnnc2CN2CCN(c3nc4ccccc4s3)CC2)c1 | i | >57 |
| COCCNC(=O)C(c1ccc(C)o1)N(C(=O)c1snc(C(N)=O)c1N)c1cccc(C)c1 (stereo not drawn) | i | >57 |
| CC(=O)NCc1ccc(-c2csc(N)n2)s1 | i | >11.4 |
| CN(Cc1ccccc1)c1ncnc2ccc(Br)cc12 | / | >25.6 |
| C=CCn1c(CSc2nc3ccccc3s2)nnc1SCC(=O)NCCN1CCOCC1 | i | / |
| NC(=O)CSc1nc2scc(-c3ccco3)c2c(=O)n1-c1ccccc1 | i | >57 |
| Cn1nnnc1SCC(=O)NCCCc1ccccc1 | i | >57 |
| O=C(Cc1cccs1)Nc1ccc(S(=O)(=O)Nc2ncccn2)cc1 | i | >57 |
| O=C(Nc1nccs1)C(NS(=O)(=O)c1ccc(Br)s1)c1ccccc1 (stereo not drawn) | i | >57 |
| C=CCn1c(Cc2cccs2)nnc1SCC(=O)Nc1ccc(OC)cc1 | i | >57 |
| Cc1ccc(N2CC(C(=O)NCCCn3ccnc3)CC2=O)cc1 (stereo not drawn) | i | >57 |
| COc1ccc(N2C(=O)CCC(C(=O)N3CCCCC3)C2c2ccc(F)cc2)cc1 (stereo not drawn) | i | >57 |

Next section
| compound | YjeE inh | PK Bst |
| --- | --- | --- |
| C=CCn1c(=N)n(CC(=O)OC)c2ccccc21 | i | >57 |
| COc1ccccc1CNC(=O)Cn1nnc(-c2ccncc2)n1 | i | >57 |
| CCN1C(=O)c2ccc(C(=O)Nc3nccs3)cc2C1=O | i | / |
| COC(=O)N1CCC2(CC1)CN(c1cccc(-c3ccccc3)c1)C2 | i | / |
| O=C(CN(C(=O)CNC(=O)c1ccco1)c1ccc2c(c1)OCO2)NC1CCCCC1 | i | >57 |
| CCC(O)c1cc2c(cc1NC(=O)c1ccc(C)cc1)OCCO2 (stereo not drawn) | ? | >57 |
| CNc1nnc(-c2cc3ccccc3oc2=O)s1 | i | / |
| COc1ccc(-c2nnc(CSc3nc4ccccc4c(=O)n3CC(C)C)o2)cc1OC | i | >57 |
| Cc1cc(N2CCN(c3cccc(C(F)(F)F)c3)CC2)n2nc(C)nc2n1 | i | >57 |
| COc1ccccc1-c1cncnc1NCc1ccccc1 | i | / |
| Cc1ccc2cccc(NC(=O)C(F)(F)F)c2n1 | i | >57 |
| CC(C)c1ccccc1NC(=O)c1cnccn1 | i | >57 |
| O=S(=O)(Nc1nc2ccccc2nc1NCc1ccco1)c1ccc(Cl)cc1 | i | >57 |
| CCOC(=O)N1CCC2(O)CCCCC2C1c1ccc(F)cc1 (stereo not drawn) | i | >57 |
| c1ccc2c(c1)CCC[C@H]2C1=NCCN1 | i | / |
| Cc1ccc(S(=O)(=O)NCC(c2ccccc2)N2CCN(CCC#N)CC2)cc1 (stereo not drawn) | i | >57 |
| COC(=O)c1cc(-c2ccc3ccccc3c2)[nH]c(=O)c1C#N | i | / |
| COCCOC(=O)c1c(C)nc(SCC(=O)Nc2ccc(OC)cc2)c(C#N)c1-c1ccco1 | / | >25.6 |
| CN1CCN(c2ncc3nc(-c4cccs4)c(=O)n(C[C@H]4CCCO4)c3n2)CC1 | i | / |
| CCn1c(=N)c(C(=O)NCc2cccnc2)cc2c(=O)n3cccc(C)c3nc21 | i | >57 |
| CN(CCc1ccccn1)c1ccc2c(c1)C(=O)c1ccccc1-2 | i | / |
| c1ccc(-n2c(-c3ccncc3)nnc2N2CCOCC2)cc1 | i | >57 |
| Cn1c(Cc2ccccc2)nnc1SCCC(=O)Nc1ccccc1 | i | >57 |
| CCCn1c(-c2ccc(F)cc2)nc2c(NCCCN3CCCCC3C)nc(C)nc21 (stereo not drawn) | i | / |
| CCOC(=O)N1CCN(C(=O)CS(=O)Cc2nc(-c3cccc(C)c3)oc2C)CC1 (stereo not drawn) | i | / |
| COc1cccc(CNCCOCCO)c1OC | i | / |
| O=c1[nH]c2ccccc2n1CCCOc1ccccc1 | i | / |
| O=C(CCN1CCN(c2ccc(F)cc2)CC1)Nc1ccccc1F | i | >57 |
| CC[N+](CC)(CC)CCOc1ccc(/C=C\c2ccccc2)cc1 | i | / |
| COC(=O)[C@H]1CCCN1C(=O)Nc1cccc(Oc2c(F)c(F)c(F)c(F)c2F)c1 | / | >25.6 |
| O=C1CC(N2CCN(c3ccc(F)cc3)CC2)C(=O)N1Cc1ccc(N2CCCC2=O)cc1 (stereo not drawn) | i | >57 |
| Nc1c(C(=O)OCC2CCCO2)c2nc3ccccc3nc2n1-c1ccc2c(c1)OCCO2 (stereo not drawn) | i | >57 |
| O=C(COc1ccccc1F)c1ccc(O)cc1O | i | / |
| O=P(Cc1nnco1)(c1ccccc1)c1ccccc1 | / | >25.6 |
| CCOCCCNC(=O)c1c(C)c(C(=O)OCC)n(C)c1C | i | >57 |
| CCc1ccc(NS(=O)(=O)c2ccc3[nH]cc(C(=O)NCC4CCCO4)c(=O)c3c2)cc1 (stereo not drawn) | i | >57 |
| CCC(=O)c1ccc(OCC(O)Cn2c(C)nc3ccccc32)cc1 (stereo not drawn) | i | >57 |
| Cc1ccc(S(=O)(=O)N2CCCC(C(=O)NCCc3ccc4c(c3)OCO4)C2)cc1 (stereo not drawn) | i | / |
| O=S(=O)(NCC(c1cccnc1)N1CCOCC1)c1cccs1 (stereo not drawn) | i | >57 |
| O=C(O)CCn1c(-c2ccccc2)cc2c1CCCC2=O | i | / |
| CCOC(=O)N1CCC(NC(=O)C(Cc2ccccc2)NC(=O)c2ccco2)CC1 (stereo not drawn) | i | >57 |
| CCC(C)N(C)Cc1cccc(C2(O)CCN(S(=O)(=O)c3ccc(F)cc3)CC2)c1 (stereo not drawn) | i | >57 |
| Cc1cc(C)c(S(=O)(=O)n2nc(C)c(Br)c2C)c(C)c1 | i | / |
| CCOC(=O)Cn1c2c(c(-c3ccccc3OC)cc1=O)CCCC2 | i | >57 |
| CCOC(=O)C1CCN(C(=O)CN(c2ccc(OC)cc2)S(=O)(=O)c2c(C)noc2C)CC1 | i | / |
| O=C(Nc1ccc(F)c(Cl)c1)c1ccc2c(=O)n3c(nc2c1)CCCCC3 | i | >57 |
| CCCCCc1nc2c(=O)n(C)c3ccccc3c2o1 | i | / |
| CCN(CC(=O)NC1CCS(=O)(=O)C1)C(=O)COc1ccccc1-c1ccccc1 (stereo not drawn) | i | >57 |
| c1coc(Cn2c(-c3ccco3)nc3ccccc32)c1 | i | >57 |
| NC(N)=NCCSSCCN=C(N)N | i | / |
